NPR1 antag: Natriuretic polypeptide receptor (hNpr1) antagonism - Primary qHTS | Atrial natriuretic peptide receptor 1 (Homo sapiens), P16066 | HEK293 hNpr1 GloSensor cGMP, ANP-stimulated luminescence | Potency, µM (top dose mostly 46.3 µM), for the others: top-dose activity change, negative = inhibition, actives largely listed as inhibitors | actives 1.6% (n = 76,000); active = well fitted inhibition curve with a large enough effect; inconclusive = small, poorly fitted or top-dose-only effect; inactive = no such curve, though single readings can be large or run the other way;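 note: nearly all actives have a fitted effect of over 60% in size; nearly all hits also lower the signal before the agonist is added; a reference antagonist and vehicle were the controls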
Target sequence (P16066 whole entry, looked up): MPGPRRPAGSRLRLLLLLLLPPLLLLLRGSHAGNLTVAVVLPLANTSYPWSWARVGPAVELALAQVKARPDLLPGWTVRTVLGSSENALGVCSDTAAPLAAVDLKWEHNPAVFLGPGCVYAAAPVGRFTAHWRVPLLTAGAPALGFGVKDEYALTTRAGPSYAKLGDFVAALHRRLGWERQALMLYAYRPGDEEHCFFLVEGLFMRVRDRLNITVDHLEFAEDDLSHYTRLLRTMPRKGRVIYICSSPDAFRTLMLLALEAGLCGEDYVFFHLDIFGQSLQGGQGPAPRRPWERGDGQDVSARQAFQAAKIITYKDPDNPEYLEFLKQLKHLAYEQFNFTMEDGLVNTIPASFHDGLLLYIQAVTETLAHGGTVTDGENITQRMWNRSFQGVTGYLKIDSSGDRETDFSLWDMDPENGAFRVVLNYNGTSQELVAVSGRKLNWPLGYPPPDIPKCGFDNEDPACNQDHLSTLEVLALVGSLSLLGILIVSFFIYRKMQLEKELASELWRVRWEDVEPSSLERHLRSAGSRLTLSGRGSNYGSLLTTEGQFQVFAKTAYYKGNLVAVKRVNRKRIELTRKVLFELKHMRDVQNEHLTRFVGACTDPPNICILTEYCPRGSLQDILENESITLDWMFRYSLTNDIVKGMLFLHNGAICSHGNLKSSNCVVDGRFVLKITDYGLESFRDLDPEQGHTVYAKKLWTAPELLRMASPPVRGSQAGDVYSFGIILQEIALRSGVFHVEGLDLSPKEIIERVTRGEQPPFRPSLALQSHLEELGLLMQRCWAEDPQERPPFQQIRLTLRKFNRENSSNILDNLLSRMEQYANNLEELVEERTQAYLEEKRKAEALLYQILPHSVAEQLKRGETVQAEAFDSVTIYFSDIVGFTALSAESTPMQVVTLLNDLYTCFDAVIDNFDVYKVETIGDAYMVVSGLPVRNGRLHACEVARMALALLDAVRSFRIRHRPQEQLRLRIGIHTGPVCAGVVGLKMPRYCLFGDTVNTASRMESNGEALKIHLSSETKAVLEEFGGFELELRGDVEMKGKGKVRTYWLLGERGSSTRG
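HEK293 cells stably expressing human Npr1 and cGMP GloSensor pGS-40F, loaded 2 h with 2% GloSensor reagent, given compound 30 min at room temperature. Luminescence read before and 20 min after 0.1 nM hNppA.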
* = called active by the depositor; ? = inconclusive; [ ] = remark or other dose. % is set by controls: 0 for no effect and ±100 for the full control effect; potency is the fitted concentration of half-maximal effect. The list is partial; rates above refer to the full screens.

Structure	NPR1 antag
Cc1ccc(CNC(=O)C(C)C2CCOCC2)o1 (configuration not stated)	0%
COc1ccc(CN2CC3(CCN(C(=O)Nc4ccc(OC)c(F)c4)CC3)C2=O)cc1	-19%
COc1ccc(-c2nnc3ccc(N4CCN(C(C)=O)CC4)nn23)nc1	-8%[70.6 µM]
Cc1ccc(CN2CCCC(CNS(=O)(=O)C3CC3)C2)cc1C (configuration not stated)	7%
COCc1nncn1C1CCN(C(=O)c2cccc(C(F)(F)F)c2)CC1	0%
O=C(N[C@H]1CCN2C(=O)c3ccccc3NC(=O)[C@@H]2C1)c1cnccn1	3%[70.6 µM]
COc1ccc(S(=O)(=O)N2CCCC(c3nn[nH]n3)C2)cc1 (configuration not stated)	2%
CC1(C)[C@H]2CC[C@@H](CNC(=O)c3ccc4c(c3)OCO4)[C@@H]1C2	-23%[70.6 µM]
O=C(N[C@H]1C[C@@H](CO)N(Cc2ccco2)C1)c1cccnc1	0%
COc1ccc(-c2nnc([C@H]3CCN(C(=O)c4ccccc4)C3)o2)cc1	-3%[70.6 µM]
O=C(NCc1nnc2ccc(-c3ccccc3)nn12)c1ccncc1	4%
O=C1[C@@H]2C[C@@H](O)CN2C2(CN(Cc3ccccc3F)C2)C(=O)N1Cc1cccc(Cl)c1	1%
O=C1c2cnc(-c3cccnc3)nc2OCCN1Cc1ccccc1	-6%[70.6 µM]
COc1cccc2c1OCC(C(=O)NCCSc1ccc(C)cc1)C2 (configuration not stated)	2%
Cc1cccc(OCC(=O)N2CCCC(c3noc(COc4ccccc4F)n3)C2)c1 (configuration not stated)	?

More records
Structure	NPR1 antag
COc1ccnc(-c2nnc3ccc(NC4CCOCC4)nn23)c1	-2%[70.6 µM]
CN1CC(=O)N(c2ccc([N+](=O)[O-])cc2)Cc2c1ncnc2N1CCC(N2CCOCC2)CC1	0%
CC1(C(=O)NC2CCOCC2)COCc2cnc(Nc3ccccc3)nc21 (configuration not stated)	0%[70.6 µM]
O=C1NCCCCCCN(Cc2ccc(F)cc2F)[C@H]2CCC[C@@H]12	-6%
COc1ccccc1C(=O)N1CCC2(CC1)CC(c1cccnc1)=NO2	19%
COc1ccc(CCCN2C(=O)O[C@@H]3CN(C4CCOCC4)C[C@@H]32)cc1	0%
CCCCOc1ccc(C(=O)N2CCC(c3n[nH]c(=O)n3Cc3ccc(C)cc3)CC2)cc1	5%
Cc1noc(C)c1-c1cnc(Nc2ccc(Cl)cn2)c2c1CCO2	-2%[70.6 µM]
CC(c1nc(-c2ccc(Cl)cc2)nn1CC(=O)O)N1CCCC1=O (configuration not stated)	4%
CC(=O)Nc1ccc(C(=O)N[C@@H]2CCOC[C@H]2OCc2ccccn2)cc1	5%
N#Cc1cccc(NC(=S)N[C@H]2CO[C@H]3[C@@H]2OC[C@@H]3n2nnnc2Oc2ccc3c(c2)OCO3)c1	?
CCOC(=O)C1CCN(C(=O)c2ccc(-c3ccc(N4CCCCCC4)nc3)cc2)CC1	?
O=C(CC1CCOC2(CCN(Cc3cccc(F)c3)CC2)C1)NCc1ccncc1 (configuration not stated)	-6%
O=C(NC1CCCN(C(=O)C2CC2)C1)c1cccc(Cn2cccn2)c1 (configuration not stated)	6%
O=C1[C@H]2CCCN2C(=O)C2C[C@@H](NS(=O)(=O)c3cccs3)CCN12 (some centres not stated)	-1%[70.6 µM]

More records.
Structure	NPR1 antag
CCO[C@H]1C[C@@H](O)C12CCN(c1ccc(C#N)cn1)CC2	-1%
CC(=O)NC1(C)CCN(c2cccc(C(F)(F)F)c2)CC1	-2%[70.6 µM]
CC(=O)N1CCCC(C(=O)N2CCC3(CC2)C(=O)N(C)c2ccccc23)C1 (configuration not stated)	0%
CO[C@@]1(C)C[C@@H](O)C12CCN(C(=O)CN1CCc3ccccc3C1)CC2	0%
O=C(Nc1ccc([C@H]2OCC(=O)N(Cc3ccc(F)cc3)[C@@H]2CO)cc1)c1ccccc1	-15%[70.6 µM]
O=C(C1CCCCCC1)N1CCC(n2cc(-c3ccccc3)nn2)CC1	-15%
Cc1cccc(C(=O)N2CCC3(CC2)NC(=O)N(Cc2ccccc2)C3=O)c1	-2%
CC1(c2ccccc2)N(Cc2ccccc2)C(=O)OC12CCN(Cc1ccccn1)CC2 (configuration not stated)	-25%[70.6 µM]
Cc1ncc2n1C(=O)N(C1CCN(C(=O)Nc3ccccc3)CC1)C2	3%[70.6 µM]
COc1ccc(C2(C(=O)N[C@H]3COC[C@H]3Cc3cc(C)no3)CCCC2)cc1	-3%
CCNC(=O)Nc1ccc(OCC(=O)N2CCCCC2)nc1	0%
CC(C)n1c(C2CCN(C(=O)c3n[nH]c4ccccc34)CC2)nn(C)c1=O	4%
COc1ccc(CCN2CCCC(CN(C)C(=O)c3cnn(C(C)C)c3)C2)cc1 (configuration not stated)	3%
CC(C)c1ccc(N2C(=S)N[C@H]3[C@@H](O)[C@H](O)C[C@@H](C(=O)N(C)Cc4ccccc4)[C@H]32)cc1	-25%
CC(=O)Nc1cc(C(=O)N2CCC(C)CC2)c2ccc(C)nc2c1	-3%

Given field by field: 3 of the compounds above
COc1ccc(CCN2CCCC(CN(C)C(=O)c3cnn(C(C)C)c3)C2)cc1 (configuration not stated)
  NPR1 antag = 3%

CC(C)c1ccc(N2C(=S)N[C@H]3[C@@H](O)[C@H](O)C[C@@H](C(=O)N(C)Cc4ccccc4)[C@H]32)cc1
  NPR1 antag = -25%

CC(=O)Nc1cc(C(=O)N2CCC(C)CC2)c2ccc(C)nc2c1
  NPR1 antag = -3%

Next section:
Structure	NPR1 antag
Cc1cc(C)n2ncc(CN3CCn4nc(C(C)O)cc4C3)c2n1 (configuration not stated)	7%
CC(C)CN1CC(COc2ccc3ccccc3c2)Oc2ccnc(-c3ccc(OCC(=O)O)cc3)c2C1=O (configuration not stated)	2%
O=C(C1CC1)N1CCC2(CC1)CC(N1CCN(c3ccccn3)CC1)CCO2 (configuration not stated)	4%
C=CCN1CCN(C(=O)[C@@H]2C[C@@H](O)CN2C2CCN(C(=O)c3cccc(OC)c3)CC2)CC1	1%
CN1CCC(Cn2ccc3c(N4CCOCC4)nc(-c4cccc5[nH]ncc45)cc32)CC1	1%[70.6 µM]
Cc1ccccc1C(=O)N1CCc2nc(C(C)C)nc(-c3ccc(O)cc3)c2C1	-2%
NCCCN1C(=O)CC[C@H]2CN(C(=O)c3coc4ccccc34)CC[C@H]21	0%
O=C(c1c[nH]c2ncccc12)N1CCC(Cc2ccccc2)CC1	-24%[70.6 µM]
Cc1ccsc1CN1CCC(Oc2ccccc2-c2nc(-c3ccncc3)no2)C1 (configuration not stated)	-23%
O=C1[C@H]2CN(Cc3ccccc3Cl)C[C@H]2C(=O)N1Cc1ccc2c(c1)OCO2	-21%
Cc1ccc(NC(=O)Nc2ccc(C)n(CC(=O)NCC(C)C)c2=O)cc1	-29%
COCCN1C(=O)c2ccccc2C(C(=O)Nc2nc3ccccc3[nH]2)C12CCCCC2 (configuration not stated)	-15%
CC1=C[C@@H](CNC(=O)COc2ccccc2)[C@H](C(C)C)C[C@H]1CC(=O)NCc1ccccn1	-22%
Clc1cccc(Nc2cnc3ccc(N4CCOCC4)nn23)c1	?
C1CC(Cc2nc(C3CC3)n[nH]2)CN1 (configuration not stated)	-1%

Next section:
Structure	NPR1 antag
COc1ccc(F)cc1S(=O)(=O)NC1CCc2nnc(C3CC3)n2CC1 (configuration not stated)	1%
CNC(=O)[C@@H]1CN(C(=O)c2ccc(F)c(Cl)c2)C[C@H]1COC	3%
Cc1ocnc1C(=O)N1CCC2(CCCN(CCCc3ccccc3)C2=O)C1 (configuration not stated)	-1%
COc1ccc(CN2C[C@@H]3C(=O)N(CCCN4CCCC4=O)C(=O)[C@@H]3C2)cc1OC	1%
O=C(CCC1CCN(C(=O)c2ccccc2)CC1)Nc1cccnc1	0%
COc1cccc(NC(=O)NC[C@H]2O[C@@H](CO)[C@@H](O)[C@H]2N2CCN(c3ccc(F)cc3)CC2)c1	4%
CC(C)c1noc(-c2cn(C3CCN(C(=O)c4cc(Cl)ccc4F)C3)nn2)n1 (configuration not stated)	-30%
CC(=O)N[C@@H]1CCC[C@@H](C(=O)NC2CCOCC2)CC(=O)N(C)C1	-3%[70.6 µM]
O=C1COCC2(CN(c3ccccc3)C2)CN1c1ccc(OC(F)(F)F)cc1	-11%[70.6 µM]
OCc1ccc(CN2C[C@H](O)C[C@H]2c2nc(-c3ccc(F)cc3)no2)o1	5%[70.6 µM]
Fc1ccc2nc([C@H]3CCN(Cc4ccc(F)c(F)c4)C3)[nH]c2c1	?
O=C1NC2CCCCC2=C1CC(=O)N1CCOCC1 (configuration not stated)	2%
COC1CN(C2CCN(C(=O)c3cccnc3C)CC2)C12CCOCC2 (configuration not stated)	2%
Cc1noc([C@@H]2CN(C3CCCC3)C[C@H]2CO)n1	12%
CCNC(=O)N[C@H]1[C@H](O)[C@@H](N2CCOCC2)[C@@H]2OC[C@H]1O2	1%[70.6 µM]

Compounds above containing a cyano group:
Structure	NPR1 antag
N#Cc1cccc(NC(=S)N[C@H]2CO[C@H]3[C@@H]2OC[C@@H]3n2nnnc2Oc2ccc3c(c2)OCO3)c1	?
CCO[C@H]1C[C@@H](O)C12CCN(c1ccc(C#N)cn1)CC2	-1%

(more compounds)
Structure	NPR1 antag
C=CCOC(=O)C1=C(C)N=C2SC=C(CC(=O)N3CCCC3)N2C1c1cccc(OC)c1OC (configuration not stated)	-24%
O=C(Nc1ccccc1)N1CCCN(c2nc3ncccc3o2)CC1	1%[70.6 µM]
CCC(C)NC(=O)C1COC2(CCC(C)CC2)N1C(=O)c1cccc(F)c1 (configuration not stated)	6%
CCNC(=O)c1sc2ncnc(NC[C@H]3C[C@@H]4C=C[C@H]3C4)c2c1C	1%
CCN1c2cc(C(=O)Nc3cccc(OC(F)(F)F)c3)ccc2C(=O)N2CCCCC21 (configuration not stated)	-10%
O=C(CCC1CCN(C(=O)c2ccccc2Cl)CC1)NC1CC1	4%
O=C(Cc1c(F)cccc1Cl)N1CCCN(c2cc(-c3ccccc3)[nH]n2)CC1	-10%
O=C(NCc1ccncc1)c1cc2n(n1)CC(c1ccc(Br)cc1)OC2 (configuration not stated)	?
CC(C)C(=O)NCCC1CCN(C(=O)Nc2cc(F)ccc2F)CC1	2%
O=C1CCN(C(=O)CC2CCCCC2)CCCC(c2nc(-c3cccnc3)no2)CCN1 (configuration not stated)	1%
COc1cccc2c1CCN=C2C[C@H]1CN(C(=O)C2CCC2)CC[C@H]1CC(=O)O	4%[70.6 µM]
O=C(O)CC1NCCNC1=O (configuration not stated)	-2%
CN(C)c1ccc(CN2CCOC[C@H]2c2ncc(-c3ccncc3)[nH]2)cc1	3%[70.6 µM]
C[C@]1(O)CCN(C(=O)CCc2c[nH]c3ccccc23)C[C@@H]1O	2%
CCNC(=O)N[C@H]1[C@H](O)[C@H](O)C[C@@H]1c1ccncc1	9%[70.6 µM]

Next part
Structure	NPR1 antag
COc1ccc(-c2nnc3n2CCN(C(=O)c2cccc(OC)c2)C3)cc1	-2%
CC(C)C[C@@H]1N[C@H](C(=O)NCc2ccc(F)cc2)Cc2cn(C)c3cccc1c23	-23%[70.6 µM]
COc1ccc(C(=O)N2CCCC(c3noc(COc4ccccc4)n3)C2)cn1 (configuration not stated)	-6%
CC1(C)C(=O)N(CC2CCOCC2)[C@H]2CN(Cc3cccnc3N)C[C@H]2[S+]1(=O)[O-]	-1%[70.6 µM]
COc1ccc(OC)c(S(=O)(=O)N2CCC(Cc3ncc(C)n3C3CC3)C2)c1 (configuration not stated)	3%
CC(=O)NC1(C)CCN(Cc2cccc(Oc3ccccc3)c2)CC1	-4%[70.6 µM]
CNC(=O)[C@@H]1CN(S(=O)(=O)Cc2ccccc2)C[C@H]1COC	3%
C=CCN1CCN(C(=O)CCC[C@H]2NC[C@@H]3C[C@H]2CN(Cc2ccccc2)C3)CC1	0%
O=C(NC1C[C@H]2CC[C@@H](C1)N2C(=O)CC1CCCCC1)c1ccc(F)cc1 (some centres not stated)	1%
Cc1cccc(NC(=O)N2CCC(N3CC4CC(C3)[C@H]3CCCC(=O)N3C4)CC2)c1 (some centres not stated)	-1%
COc1cccc(CCN2CC[C@H]3CN(C(=O)c4ccccc4)CC[C@H]3CC2=O)c1OC	-2%
CCC(=O)NCCn1c(C)nc2cc(S(=O)(=O)N3CCOCC3)ccc21	5%
COc1ccccc1OCCNC(=O)C1CCCCC(=O)N1 (configuration not stated)	6%
COc1ccc(CN2C(=O)O[C@@H]3CN(Cc4nc[nH]c4C)C[C@@H]32)cc1OC	4%
CS(=O)(=O)c1ccc(OC[C@H]2C[C@@H](NC(=O)c3cccnc3)[C@H](O)[C@@H]2O)cc1	3%
CCCc1nc(C(=O)NC2CCCc3nc(N(C)C)ncc32)cs1 (configuration not stated)	4%
CN(CC1CCOC1)S(=O)(=O)c1cccc(Cl)c1 (configuration not stated)	0%

Screening data as filed in PubChem BioAssay.
